# High-throughput results: PubChem, several laboratories
# HIV Env fusion: inhibitors of HIV-1 Env-driven cell-cell fusion, primary screen, HeLa-JRFL effector, CEM21 target cells, luciferase. inhibition, % at 12.3 µM. 360,000 tested, 1.1% active. AID 651610, 2012;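 active = mean replicate inhibition score of at least 50 and every replicate individually at or above 50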;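 note: 0% = plate neutral controls and 100% = maraviroc near 300 nM; one replicate is shown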
# CSC inhib: cancer stem cell viability inhibitors, primary screen, luminescence | cancer stem cell-like cells viability | inhibition, % at 7.5 µM | 300,000 tested, 1.1% active | AID 2717, 2010;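 active = mean at 75% or more and at least half the replicates too; tested in HMLE shEcad cells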;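 note: 0% = median of negative and 100% = median of positive control wells; the first replicate is given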
# UUG fidelity: modulators of yeast start codon fidelity, primary screen, whole organism, S. cerevisiae, single point, plate reader; S. cerevisiae UUG-firefly luciferase reporter, luminescence/redox ratio; activity score, % at 18.7 µM; 350,000 tested, 0.13% active; AID 602363, 2012;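 active = replicate mean at a twofold rise or more, about +100% in these data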;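 note: firefly luciferase made from a UUG start codon reports start codon fidelity; reporter light over untreated wells divided by growth signal over untreated wells; some hits fall short of that in this replicate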
# eIF4H inh: human eIF4H binding inhibitors, primary screen, translation initiation inhibitor project, biochemical, uHTS, fluorescence polarization. AID 2012, 2009. 290,000 tested, 0.94% active. eIF4H fluorescence polarization binding assay. inhibition, % at 35 µM. Eukaryotic translation initiation factor 4H (Homo sapiens), Q15056;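 active = 50% or more with normal probe brightness, or confirmed in later tests; about a fifth of its hits are not listed in these tables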;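 note: calls also rest on retests at 20 µM and on dose response follow-up; 0% = protein and probe with vehicle and 100% = probe without protein; strong numbers were not always called active; many hits fall short of the cut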
# PABP polyA inh: PABP poly(A) RNA binding inhibitors, primary screen, biochemical, fluorescence polarization, uHTS. Polyadenylate-binding protein 1 (Homo sapiens), P11940. AID 2014, 2009. 290,000 tested, 1% active. inhibition, % at 35 µM;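 active = 50% or more with normal probe brightness, or confirmed in later tests; about a fifth of its hits are not listed in these tables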;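 note: calls also rest on retests at 20 µM and on dose response follow-up; controls were probe without protein and protein plus probe with vehicle; some compounds called inactive have numbers as strong as hits; many hits fall short of the cut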
# Rce1 inhib: yeast Rce1p protease inhibitors, primary screen, biochemical, fluorescence, cell-free homogeneous; CAAX prenyl protease 2 (Saccharomyces cerevisiae (strain ATCC 204508 / S288c)), Q03530; yeast membranes, quenched prenylated peptide cleavage fluorescence; calls only; 290,000 tested, 0.27% active; AID 2563, 2010;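 active = fall in fluorescence gain of 50% or more versus controls, with final raw signal at or below 3038400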;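 note: plate controls were neutral control wells for no effect and wells lacking membranes for full effect; tested at 10 µM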
# Target sequence (Q03530 whole entry, looked up): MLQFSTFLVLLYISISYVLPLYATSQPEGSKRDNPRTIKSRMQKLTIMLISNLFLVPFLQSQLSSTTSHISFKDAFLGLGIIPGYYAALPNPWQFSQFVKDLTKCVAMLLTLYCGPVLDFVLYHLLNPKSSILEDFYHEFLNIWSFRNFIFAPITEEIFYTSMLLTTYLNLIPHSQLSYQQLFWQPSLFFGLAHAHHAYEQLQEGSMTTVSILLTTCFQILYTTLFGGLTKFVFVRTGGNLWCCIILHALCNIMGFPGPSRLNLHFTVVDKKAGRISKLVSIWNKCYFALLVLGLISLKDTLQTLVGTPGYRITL
# MT1-MMP act inh: blockers of MT1-MMP proenzyme processing, primary screen, HT1080 RFP-PRO-GFP cells, GFP/RFP fluorescence. GFP/RFP ratio fluorescence, overnight; percent of plate control window, DMSO zero. GFP/RFP ratio change, % at 20 µM. 360,000 tested, 0.061% active;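 active = GFP/RFP ratio change of at least 30% with cell ATP level not reduced by more than half and red fluorescence within 50% of control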; note: strong numbers were not always called active
#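 Test system: HT1080 RFP-PRO-GFP cells; Benchmarks: DMSO and RFP-L50D-GFP cell wells; Timing: cells overnight before dosing, compound overnight, 37 °C, 5% CO2; Compound: one 20 µM compound dose with 1% DMSO; Read-out: GFP/RFP fluorescence ratio.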
# eIF4H inh retest: second read-out of eIF4H inh, no call of its own (marks repeat the call); inhibition, %; compound at 20 µM; confirmation average;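 mean of two retest wells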
# PABP polyA inh retest: further read-out of PABP polyA inh, marked with its call; inhibition, %; compound at 20 µM; confirmation repeats;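 mean of two retest wells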
# MT1-MMP act inh RFP: recorded beside MT1-MMP act inh, whose call it bears; RFP signal change, %; measured here: RFP expression control read;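 0 = vehicle wells; hits needed this value within 50% of zero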
# * marks the source's active call; other numbers are inactive results; i = inactive; / = not tested or not shown.
SMILES,HIV Env fusion,CSC inhib,UUG fidelity,eIF4H inh,PABP polyA inh,Rce1 inhib,MT1-MMP act inh,MT1-MMP act inh RFP,others
COc1ccc(-c2cc3c(c4c2ccn4C)C2CCC3O2)cc1OC (stereo unspecified),25,/,-6,/,/,/,2,3,
O=C(COC(=O)CCC(NC(=O)OCc1ccccc1)C(=O)OCC(=O)Nc1ccccc1)Nc1ccccc1 (stereo unspecified),/,26,/,-1,59*,i,1,7,eIF4H inh retest=31;PABP polyA inh retest=58*
O=C(CN(C(=O)c1csnn1)c1ccc2c(c1)OCCO2)NCc1ccc(F)cc1,4,-13,-2,2,-3,i,-2,-3,
CCc1ccccc1NC1c2ccccc2C(=O)N1c1cccnc1 (stereo unspecified),2,18,-12,-4,3,i,-4,-3,
COc1ccc(C(=O)Nc2ccc([N+](=O)[O-])cn2)cc1OC,-5,-8,1,20,-10,i,-5,2,
CCN(CC)CCN(C(=O)CCS(=O)(=O)c1ccccc1)c1nc2cc(OC)c(OC)cc2s1,-5,-3,3,-5,23,i,4,6,
O=C1NNC(=O)C2C3C=CC(C4CC34)C12 (stereo unspecified),/,-6,1,12,-6,i,2,2,
CCCCN(C(=O)C1CCCC1)c1c(N)n(CC(C)C)c(=O)[nH]c1=O,2,/,-6,/,/,/,3,5,
C=CCNc1nc2cc(-c3cccc(NC(C)=O)c3)sc2c(=O)n1C,14,/,-19,/,/,/,2,2,
O=C(O)c1ccc(CNC(=S)Nc2ccccc2)cc1,8,-7,-17,-1,3,i,0,-1,
CCN(C[C@H]1N[C@@](Cc2ccccc2)(C(=O)OC)[C@H]2C(=O)N(C)C(=O)[C@@H]12)S(=O)(=O)c1ccc(OC)cc1,-8,-8,19,/,/,/,4,3,
Cc1cc(=O)[nH]c(N/N=C/c2ccc3c(c2)OCCO3)n1,-10,-12,-20,-2,-6,i,-2,1,
CCCCNc1c(N)n(CCCC)c(=O)[nH]c1=O,/,/,/,-3,7,i,/,/,
O=C(O)c1nn(CCOc2ccc(Br)cc2)c(=O)c2ccccc12,3,-21,1,3,-1,/,2,0,
COc1ccc(C2CC(=O)C3=C(C2)NC(C)=C(C#N)C3c2ccc(N(C)C)cc2)cc1 (stereo unspecified),/,-9,/,-4,2,i,-6,-4,
O=C(COC(=O)c1ccccn1)Nc1cccc2ccccc12,27,-14,17,5,12,i,3,4,
Cc1coc2cc3oc(=O)c(CC(=O)N[C@@H](CC(C)C)C(=O)O)c(C)c3cc12,-6,7,1,-4,-4,i,0,1,
O=C(Nc1cccc(N=Cc2cc(Cl)cc(Br)c2O)c1)c1ccco1,11,13,/,86,1,i,-3,2,eIF4H inh retest=-11;PABP polyA inh retest=13
CC(=NNC1=NCCN1)c1cn(C2=NCCN2)nc1C,7,/,-15,/,/,/,3,1,
CN(C)c1ccc(C2(c3ccc(N(C)C)cc3)OC(=O)c3cc(N)ccc32)cc1,-2,3,-14,4,5,i,1,-3,
Cc1c(/C=N/Nc2ccc(C(=O)O)cc2)c2ccccc2n1C,-22,-14,-15,9,8,i,-11,-4,
C=CCn1c(SCCOc2ccc(OC)cc2)nnc1C(CO)NC(=O)c1ccc(OC)cc1 (stereo unspecified),/,7,-15,6,0,/,6,-5,
CC(NC(=O)N1CCN(c2ccccc2F)CC1)c1ccc(F)c(F)c1 (stereo unspecified),0,11,-5,-4,0,i,0,1,
O=C(CN1C(=O)C2CC=CCC2C1=O)Nc1ccc(F)c(Cl)c1 (stereo unspecified),11,/,-1,/,/,/,3,4,
S=c1[nH]nc(-c2cccs2)n1Cc1ccccc1,-21,-7,/,4,-7,i,3,2,
# The results go on.
SMILES,HIV Env fusion,CSC inhib,UUG fidelity,eIF4H inh,PABP polyA inh,Rce1 inhib,MT1-MMP act inh,MT1-MMP act inh RFP,others
O=C(CCS(=O)(=O)c1cc(Br)cc2c1N(C(=O)C1CC1)CC2)NCc1ccco1,/,/,0,6,-1,/,5,3,
CCN1C(=O)CS/C1=N\S(=O)(=O)c1ccc(Cl)cc1,1,6,-10,-4,19,i,-6,2,
CN(Cc1c(C(=O)N/N=C/c2cccc(O)c2)nnn1-c1nonc1N)c1ccccc1,/,4,8,1,-1,i,4,2,
O=C1CC(SCCc2nc3ccccc3[nH]2)C(=O)N1c1ccc(Cl)cc1 (stereo unspecified),/,-5,-11,-2,-3,i,1,1,
Cc1c(C(=O)Nc2cccc(C(F)(F)F)c2)oc2ccc(S(=O)(=O)N3CCOCC3)cc12,/,-13,-22,-12,-8,/,5,-1,
Clc1cccc(CSc2nnc(-c3c[nH]c4ccccc34)o2)c1,-60,71,-6,-7,-11,i,1,1,
CC(C)c1cc(C(=O)Nc2cc(Cl)ccc2O)no1,-60,25,-21,-9,-8,i,-7,-3,
c1cncc(-c2nnc(-c3cccnc3)nn2)c1,-12,10,-31,-15,6,i,2,11,
CCCCn1ccnc1C,-11,-7,-13,4,8,i,1,5,
Cn1cccc1C(=O)NCC1COc2ccccc2O1 (stereo unspecified),-11,/,-15,/,/,/,5,3,
Cc1ccc(NC(=O)CN2C(=O)NC(C)(c3ccc(Cl)cc3)C2=O)cc1S(=O)(=O)N1CCOCC1 (stereo unspecified),19,30,/,-5,9,i,1,-5,
O=S(=O)(Nc1ccc(Oc2ncccn2)c(Cl)c1)c1ccc(Cl)cc1,-133,-9,-16,2,-17,i,-4,-2,
Cc1ccc(S(=O)(=O)N/N=C/c2cc(Br)ccc2O)cc1,-36,11,-20,4,8,i,-1,-3,
Cc1c(C(=O)C(=O)NCCC2=CCCCC2)c2ccccc2n1C,-12,-17,/,1,-14,i,8,0,
CCCCC1(CC(=O)OC)C(=O)N(c2ccccc2)N(c2ccccc2)C1=O,/,-12,/,1,2,i,-2,-2,
CCOC(=O)CN(c1ccccc1C)S(=O)(=O)c1ccc(Cl)cc1,13,4,16,9,13,i,0,-5,
OC[C@@H](O)C(O)[C@@H](O)CO (stereo partly specified),12,/,-24,/,/,/,2,0,
Cc1cccc(-n2ncc3c(N(CCO)CCO)ncnc32)c1,-24,-3,3,2,9,i,5,6,
OC(CNCC(c1ccc(Cl)cc1Cl)c1c[nH]c2ccccc12)c1ccccc1 (stereo unspecified),37,104*,-8,2,-4,i,-16,-21,
C=CCN1CCN(C(=O)c2c(-c3ccccc3)noc2C)CC1,-9,-10,-16,-1,-10,i,-2,2,
Cc1nnc(SCC(=O)NCc2cccs2)[nH]c1=O,-10,/,-10,-6,4,i,-1,5,
CC(C)Oc1cccc(C(=O)Nc2ccc(Br)cc2F)c1,/,26,/,2,12,i,0,-6,
CCCCS(=O)(=O)Nc1ccc2c(c1)ncn2C1CCCCC1,/,-7,-5,8,-2,i,3,-7,
Clc1ccc(C#Cc2cccnc2)cc1,-68,13,-22,/,/,i,-1,-2,
Cc1ccccc1Nc1c([N+](=O)[O-])cncc1[N+](=O)[O-],10,-14,-15,-6,0,i,3,-5,

# An excerpt from above in order of heavy-atom count, smallest number first:
SMILES,HIV Env fusion,CSC inhib,UUG fidelity,eIF4H inh,PABP polyA inh,Rce1 inhib,MT1-MMP act inh,MT1-MMP act inh RFP,others
Cc1nnc(SCC(=O)NCc2cccs2)[nH]c1=O,-10,/,-10,-6,4,i,-1,5,
Cc1ccccc1Nc1c([N+](=O)[O-])cncc1[N+](=O)[O-],10,-14,-15,-6,0,i,3,-5,
Cc1ccc(S(=O)(=O)N/N=C/c2cc(Br)ccc2O)cc1,-36,11,-20,4,8,i,-1,-3,
C=CCN1CCN(C(=O)c2c(-c3ccccc3)noc2C)CC1,-9,-10,-16,-1,-10,i,-2,2,
O=C1CC(SCCc2nc3ccccc3[nH]2)C(=O)N1c1ccc(Cl)cc1 (stereo unspecified),/,-5,-11,-2,-3,i,1,1,
CCCCC1(CC(=O)OC)C(=O)N(c2ccccc2)N(c2ccccc2)C1=O,/,-12,/,1,2,i,-2,-2,

# (further entries)
SMILES,HIV Env fusion,CSC inhib,UUG fidelity,eIF4H inh,PABP polyA inh,Rce1 inhib,MT1-MMP act inh,MT1-MMP act inh RFP,others
O=C(NC(=S)Nn1cnnc1)c1ccc(F)cc1Cl,-1,8,-15,-6,12,i,-1,2,
Cc1ccc(OC(=O)NC2CCS(=O)(=O)C2)cc1C (stereo unspecified),/,-5,/,-10,-1,i,3,2,
O=c1cc(CN2CCN(c3ccccc3O)CC2)nc2sccn12,/,/,-13,32,14,i,0,2,
Cc1ccc(NC(=O)C2CCCN(S(=O)(=O)c3c(C)noc3C)C2)cc1 (stereo unspecified),19,1,-5,4,7,i,1,0,
O=C(CN1C(=O)NC2(CCCC2)C1=O)NCCC1=CCCCC1,/,/,16,9,-5,i,-1,4,
Cc1cc(C)nc(NC(=O)C(C)N2C(=O)c3ccccc3C2=O)n1 (stereo unspecified),-69,/,13,-3,-2,i,2,-1,
O=C(/C=C/c1ccc(S(=O)(=O)N2CCOCC2)cc1)N(CCO)Cc1ccccc1,-163,-14,-15,4,-3,i,3,-2,
Cc1ccc(S(=O)(=O)NC(=O)C2(C)CCN2C(=O)C2CCCCC2)nc1 (stereo unspecified),8,/,-2,/,/,/,1,5,
CC(O)CC(C)O (stereo unspecified),/,-1,-9,/,/,/,0,7,
COc1cc(C2Nc3ccccc3NC3=C2C(=O)CC(c2ccc(OC)c(OC)c2)C3)ccc1O (stereo unspecified),7,-5,-27,-2,10,i,0,1,
O=C(O)c1ccccc1NCc1cccnc1,10,-5,-1,/,/,i,1,0,
O=C(CCC(=O)c1ccc(F)cc1)Nc1cccc(C(F)(F)F)c1,-32,7,/,20,4,i,-3,5,
COC(=O)C(CCCN1C(=O)c2ccccc2C1=O)(NC(C)=O)c1nnn(C)n1 (stereo unspecified),-21,-9,9,1,-12,i,3,0,
O=C(C1CCN(CC2CCCCC2)CC1)N1CCCC1,-17,-16,/,0,-12,/,1,-3,
O=C(Cn1cnc(S(=O)(=O)N2CCCC2)c1)Nc1cccc(F)c1,1,-4,-13,-12,10,i,1,4,
Cc1onc(-c2ccccc2)c1C(=O)c1c[nH]c(C(=O)NCc2ccncc2)c1,2,/,/,-1,8,i,-2,-8,
CC1(c2nnc(Cc3ccccc3)o2)CC(c2ccccc2)=NO1 (stereo unspecified),0,-14,-14,/,/,i,4,4,
Cc1ccc(-n2nc3c(c2NC(=O)c2c(-c4ccccc4Cl)noc2C)CSC3)cc1,/,22,/,4,0,/,/,/,
NS(=O)(=O)c1ccc(CCNC(=S)NC(=O)c2ccccc2Br)cc1,0,11,-26,/,/,/,-2,-1,
FC(F)(F)c1nnc2sc(-c3ccncc3)nn12,-31,-9,-11,-1,4,i,0,5,
CC1(C(=O)NCc2cccc3ccccc23)CCN1Cc1cccc2c1OCO2 (stereo unspecified),-83,/,-6,/,/,/,-5,-6,
CC1CCCC(NC(=O)COC(=O)[C@@H](NC(=O)c2ccco2)C(C)C)C1C (stereo partly specified),-6,-6,/,2,6,i,0,5,
NC1=NC2(CCC(c3ccccc3)CC2)n2c(nc3ccccc32)N1 (stereo unspecified),/,-4,-12,-5,-5,i,3,-13,
O=C(c1ccc(F)cc1)C1CCN(C(=S)NCC2CCCO2)CC1 (stereo unspecified),23,-6,/,-3,-7,i,3,-7,
O=C(CSc1nnnn1C1CCCC1)N1CCCCC1,-16,/,-11,6,-3,i,0,3,
O=C(NCc1ccccc1)c1cc2ccccc2oc1=O,-6,-6,3,-1,-7,i,-1,4,
